From PubChem
Yeast UUG start – yeast start codon fidelity modulation | S. cerevisiae UUG-firefly luciferase reporter, luminescence/redox ratio | activity score, % at 18.7 µM | 0.13% of 350,000 active | AID 602363;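 active = replicate mean at a twofold rise or more, about +100% in these data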;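 also: firefly luciferase made from a UUG start codon reports start codon fidelity; reporter light over untreated wells divided by growth signal over untreated wells; some hits fall short of that in this replicate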
MT1-MMP act inh – MT1-MMP (human) activation inhibition; P50281; HT1080 RFP-PRO-GFP cells, GFP/RFP ratio fluorescence, overnight; percent of plate control window, DMSO zero; GFP/RFP ratio change, % at 20 µM; 0.061% of 360,000 active;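 active = GFP/RFP ratio change of at least 30% with cell ATP level not reduced by more than half and red fluorescence within 50% of control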; also: strong numbers were not always called active
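system = RFP-PRO-GFP reporter HT1080 cells | dosing = 20 µM single dose, 1% DMSO | timing = overnight cell settling, then overnight compound exposure, 37 °C, 5% CO2 | read-out basis = GFP/RFP fluorescence ratio | controls = DMSO and RFP-L50D-GFP cell wells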
PABP FP inh – PABP-poly(A) binding inhibition; P11940; PABP-poly(A) RNA binding, fluorescence polarization; inhibition, % at 35 µM; 1% of 290,000 active; AID 2014;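 active = 50% or more with normal probe brightness, or confirmed in later tests; inconclusive = above 50% with abnormal brightness, or retests that disagree; inactive = below 50% or failed in later tests; about a fifth of its hits are not listed in these tables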;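 also: calls also rest on retests at 20 µM and on dose response follow-up; controls were probe without protein and protein plus probe with vehicle; some compounds called inactive have numbers as strong as hits; many hits fall short of the cut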
Target sequence (P11940 whole entry, looked up): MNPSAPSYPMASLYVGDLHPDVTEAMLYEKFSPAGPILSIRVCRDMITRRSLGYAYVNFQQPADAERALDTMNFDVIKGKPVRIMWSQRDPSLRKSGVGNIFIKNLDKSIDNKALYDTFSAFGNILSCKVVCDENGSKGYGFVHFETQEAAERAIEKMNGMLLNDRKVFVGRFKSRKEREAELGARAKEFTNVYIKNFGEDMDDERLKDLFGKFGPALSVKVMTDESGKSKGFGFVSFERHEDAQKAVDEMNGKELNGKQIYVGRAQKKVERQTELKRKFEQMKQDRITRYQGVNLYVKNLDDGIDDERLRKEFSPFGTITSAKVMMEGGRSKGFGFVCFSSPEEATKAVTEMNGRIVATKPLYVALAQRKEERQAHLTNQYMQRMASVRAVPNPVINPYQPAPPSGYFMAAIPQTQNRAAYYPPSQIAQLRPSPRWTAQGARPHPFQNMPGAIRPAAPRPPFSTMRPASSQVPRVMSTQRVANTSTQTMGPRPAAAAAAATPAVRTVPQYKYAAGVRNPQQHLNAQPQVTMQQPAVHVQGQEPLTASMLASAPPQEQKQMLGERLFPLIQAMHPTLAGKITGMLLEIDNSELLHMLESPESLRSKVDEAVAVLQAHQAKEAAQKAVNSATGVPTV
HIV Env fusion – HIV envelope-mediated fusion inhibition; HeLa-JRFL Env/CEM21 cell fusion, luciferase; inhibition, % at 12.3 µM; 1.1% of 360,000 active; AID 651610;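 active = mean replicate inhibition score of at least 50 and every replicate individually at or above 50; inconclusive = only one of the two criteria met; inactive = mean below 50 and not all replicates reaching 50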;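 also: 0% = plate neutral controls and 100% = maraviroc near 300 nM; one replicate is shown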
CSC inhib – blocks cancer stem cells. 1.1% of 300,000 active. cancer stem cell-like cells viability, luminescence. inhibition, % at 7.5 µM;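 active = mean at 75% or more and at least half the replicates too; inconclusive = mean and replicates disagree; tested in HMLE shEcad cells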;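 also: 0% = median of negative and 100% = median of positive control wells; the first replicate is given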
Rce1 inhib – blocks yeast Ras-converting enzyme; yeast membranes, quenched prenylated peptide cleavage fluorescence; 0.27% of 290,000 active; calls only; Q03530;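 active = fall in fluorescence gain of 50% or more versus controls, with final raw signal at or below 3038400; inconclusive = same 50% fall but final raw signal above 3038400; inactive = fall in fluorescence gain under 50%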;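 also: plate controls were neutral control wells for no effect and wells lacking membranes for full effect; tested at 10 µM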
eIF4H inh – inhibitors of RNA binding by human eIF4H. 0.94% of 290,000 active. eIF4H fluorescence polarization binding assay. inhibition, % at 35 µM. AID 2012;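 active = 50% or more with normal probe brightness, or confirmed in later tests; inconclusive = above 50% with abnormal brightness, or retests that disagree; inactive = below 50% or failed in later tests; about a fifth of its hits are not listed in these tables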;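 also: calls also rest on retests at 20 µM and on dose response follow-up; 0% = protein and probe with vehicle and 100% = probe without protein; strong numbers were not always called active; many hits fall short of the cut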
eIF4H inh retest – recorded beside eIF4H inh, whose call it bears; inhibition, %; compound at 20 µM; confirmation average;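 mean of two retest wells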
PABP FP inh retest – second read-out of PABP FP inh, no call of its own (marks repeat the call); inhibition, %; compound at 20 µM; confirmation repeats;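 mean of two retest wells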
MT1-MMP act inh RFP – also measured in MT1-MMP act inh; calls as there; RFP signal change, %; measured here: RFP expression control read;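 0 = vehicle wells; hits needed this value within 50% of zero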
* hit, by the source's call; i = inactive; ? = inconclusive; / = not tested or not shown. An excerpt, so the mix of outcomes need not match the whole.

SMILES | Yeast UUG start | MT1-MMP act inh | MT1-MMP act inh RFP | PABP FP inh | HIV Env fusion | CSC inhib | Rce1 inhib | eIF4H inh | others
Cc1ccc([N+](=O)[O-])cc1NC1OC(CO)C(O)C1O (stereo not drawn) | -2 | -4 | -1 | -1 | / | / | i | -2
COc1ccc(S(=O)(=O)NC(=O)C2(C)CCN2C(=O)C2(c3ccccc3)CC2)cc1 (stereo not drawn) | 5 | -1 | 6 | / | -3 | / | / | /
CCN(CC)C(=O)/C(=C/c1ccc(F)cc1)NC(C)=O | / | -3 | 5 | 11 | -28 | 5 | i | -3
O=C(Cc1ccc([N+](=O)[O-])cc1)Nc1ccc(O)cc1C(=O)O | / | 2 | 6 | 22 | 14 | -9 | i | -11
O=C(CSC1=Nc2ccccc2C2=NC(CC(=O)NCc3ccco3)C(=O)N12)NCc1ccco1 (stereo not drawn) | -3 | -2 | 13 | 30 | -21 | 6 | i | 28
O=C(O)c1ccc(/C=N/NC(=O)C2CC2(c2ccccc2)c2ccccc2)cc1 (stereo not drawn) | / | / | / | -9 | -59 | -1 | i | -10
Cc1ccc(C2CC(=O)Oc3cc(O)ccc32)cc1 (stereo not drawn) | -13 | 38* | 42* | 4.5* | 15 | 11 | i | 50* | eIF4H inh retest=59*;PABP FP inh retest=53*
CC(=O)N1N=C(c2ccncc2)CC1c1ccccc1O (stereo not drawn) | -15 | 5 | 4 | -2 | -10 | 0 | i | 6
O=C(Cc1ccccc1)NNC(=O)c1ccc(Br)o1 | 4 | 3 | 7 | 7 | -9 | / | i | 4
COc1ccccc1CN(C)C(=O)c1cccc(S(=O)(=O)N2CCCc3ccccc32)c1 | -7 | -5 | -2 | / | 12 | -7 | / | /
COc1ccccc1C1C=C(c2ccccc2)Nc2nnnn21 (stereo not drawn) | 4 | 0 | -7 | 4 | -203 | -14 | i | 2
CCOC(=O)N1CCC(NC(=O)C2CCCN(S(C)(=O)=O)C2)CC1 (stereo not drawn) | -5 | 4 | 5 | -6 | / | 12 | i | -2
O=C(NCCc1ccccc1)C1CCC(=O)N(CCCN2CCCC2=O)C1 (stereo not drawn) | -14 | 1 | -1 | -2 | 6 | -11 | i | -5
Cn1cnnc1Sc1ccc(/C=C/C(=O)c2ccc(O)cc2)cc1[N+](=O)[O-] | -17 | 13 | -22 | -8 | -109 | 71 | i | -11
O=C(CN1C(=O)CC(c2ccccc2)S(=O)(=O)c2ccccc21)N1CCCC1 (stereo not drawn) | -8 | 0 | 0 | -3 | -13 | 2 | i | -9
CCOC(=O)c1cc(C#N)c(SCC(=O)c2cc(C#N)c(SC)nc2C)[nH]c1=O | -3 | -15 | 3 | 46 | 18 | -1 | i | 15
O=C1c2ccccc2C(=O)N1CCc1ccccn1 | -14 | -1 | 4 | -6 | -68 | -3 | i | 5
CCOC(=O)C1CCN(C(=O)C(C)c2ccc([N+](=O)[O-])cc2)CC1 (stereo not drawn) | / | 0 | 5 | -4 | 8 | -15 | i | 0
C=CCn1c(CCNC(=O)c2cccs2)nnc1SCC(=O)Nc1cccc(Cl)c1C | -28 | 5 | 0 | 6 | -53 | -15 | i | 3
CCN(C(=O)CSc1ncccn1)c1cccc2ccccc12 | -4 | 0 | -1 | / | / | -4 | / | /
COc1cc(C(=O)NC2CC(C)(C)CC(C)(C)C2)ccc1OC1CCN(C(C)=O)CC1 | 20 | -1 | -1 | 0 | -3 | -9 | i | -7
COC(=O)c1cn(NC(=O)Cc2ccc(OC)c(OC)c2)c(=O)c2ccccc12 | 479* | 1 | 2 | 8 | -2 | -10 | i | -13
COc1cc(/C=N/NC(=O)C[n+]2ccccc2)cc(OC)c1OC | / | 5 | 9 | 0 | 5 | -6 | i | -7
Cc1ccc(NC(=S)N2CCC(NC(=O)c3ccc(C)cc3)CC2)cc1 | -10 | -4 | 1 | 7 | 10 | -8 | / | -12
CC(Oc1ccc(S(=O)(=O)N2CCCC2)cc1[N+](=O)[O-])C(=O)NC(C)c1ccccc1 (stereo not drawn) | 16 | -1 | -5 | / | 3 | 43 | i | /
O=C(N/N=C/c1ccc([N+](=O)[O-])cc1)c1cccc2cc[nH]c12 | / | -3 | -4 | 8 | -6 | 10 | i | 7
CC1(C)CSC(=NCCc2ccccc2)N1C(=O)c1ccc(C#N)cc1 | 16 | 5 | 3 | 4 | / | 12 | i | -4
O=C(NC(=S)NNC(=O)c1cnccn1)c1ccc(F)cc1 | / | 6 | 1 | ? | 8 | 61 | i | 9
NS(=O)(=O)c1cccnc1Nc1cccc(Cl)c1Cl | -4 | -2 | 1 | 2 | / | -5 | i | -2
C=CCNC(=O)C1CCC(=O)N1S(=O)(=O)c1ccc(C)cc1 (stereo not drawn) | -16 | 0 | 0 | 2 | 25 | -5 | i | 55 | eIF4H inh retest=-2;PABP FP inh retest=7
O=[N+]([O-])c1cc(-c2cnc3ccccc3n2)ccc1Oc1ccc(Cl)cc1 | / | 2 | -9 | 8 | / | 77* | i | 7
COc1ccc2[nH]cc(C3N4CC5(C)CN3CC(C)(C4)C5=O)c2c1 (stereo not drawn) | -3 | -2 | -2 | 1 | / | / | i | 7
O=C(NN1C(=O)c2ccccc2C1=O)c1ccc2c(c1)C(=O)N(CC1CCCO1)C2=O (stereo not drawn) | -8 | -1 | 3 | 8 | -12 | -18 | i | 6
COC(=O)C(C(=O)OC)C(C[N+](=O)[O-])c1ccc(OC)c(OC)c1 (stereo not drawn) | -8 | 0 | 5 | 7 | -82 | 8 | i | -3
COC(=O)c1c(NC(=O)CN2CCOCC2)sc2c1CCC(C)C2 (stereo not drawn) | 8 | -7 | -18 | -12 | / | 8 | i | 2
COc1cccc(-n2nnnc2SCC(=O)Nc2cccc(NC(C)=O)c2)c1 | -8 | 6 | -6 | -3 | -2 | -1 | i | -4
O=Cc1cn(CC(=O)N2CCCCC2)c2ccccc12 | / | 3 | 5 | -4 | 6 | -4 | i | -2
O=C(NCCOc1ccccc1)c1ncn[nH]1 | 0 | 7 | 3 | 30 | -53 | 16 | i | 0
O=C1C(CSCc2ccccc2)NC(=S)N1c1ccccc1 (stereo not drawn) | -11 | 2 | 0 | 108 | 33 | 41 | i | 13 | eIF4H inh retest=-3;PABP FP inh retest=4
CC(Oc1ccc(Br)cc1)C(=O)NCC1(N2CCCCC2)CCCCC1 (stereo not drawn) | -16 | -1 | 5 | / | -17 | 2 | / | /
CC(=O)Nc1ccc(S(=O)(=O)NCCC(=O)Nc2cccc(Cl)c2)cc1 | -17 | -3 | 2 | -4 | -3 | -7 | i | -1
CC(=O)O[C@@H]1[C@@H](OC(C)=O)[C@H](n2ccc3cc([N+](=O)[O-])ccc32)OC[C@@H]1OC(C)=O | 1 | -1 | 3 | / | -5 | -8 | i | /
Cc1cc(C)c(S(C)(=O)=O)c(Oc2cccc(C(F)(F)F)c2)n1 | / | -2 | -4 | -14 | -5 | 4 | i | -4
CCN1CCN(c2cc(C)c3cc(NC(=O)c4ccc(Br)o4)ccc3n2)CC1 | -2 | 5 | -1 | -1 | -33 | -7 | i | -7
CC[C@]12c3[nH]c4ccccc4c3CCN1C(=O)C(CC(=O)NC/C=C(\C)CCC=C(C)C)C[C@@H]2C(=O)N1CCN(C(=O)C2CC2)CC1 (stereo partly drawn) | 0 | -4 | -12 | / | / | -2 | / | /
CCOC(=O)c1sc(NC(=O)CN2C(=O)c3cccc4cccc(c34)C2=O)nc1C | -18 | -1 | 1 | -2 | / | 7 | i | 4
Cn1cc(Cl)c(-c2n[nH]c(=S)n2C2CCCCC2)n1 | / | 0 | 1 | -16 | 2 | -1 | i | 5
Cc1cc(C)cc(NC(=O)c2cccc(NC3=NC4CS(=O)(=O)CC4S3)c2)c1 (stereo not drawn) | -16 | -2 | -1 | -5 | -13 | / | i | -2
O=C1CNCc2[nH]c3ccccc3c2N1c1ccccc1 | -17 | -16 | 4 | 15 | -47 | 1 | i | -9
O=C(Cc1ccccc1)N1O[C@H]2C=C[C@@H]1CC2 | -13 | 1 | 1 | / | -9 | / | / | /
Cc1ccccc1OCCSc1nc(N(C)C)nc(N(C)C)n1 | / | -1 | 1 | 12 | 28 | 14 | i | -1
CCOC(=O)C1CCCN(C(=O)CCc2ccccc2)C1 (stereo not drawn) | -2 | 3 | -5 | -12 | 12 | 2 | i | -14
CCOC(=O)C1CCN(C(=O)C2CCCN2S(=O)(=O)c2ccc(Cl)cc2)CC1 (stereo not drawn) | 6 | -4 | -3 | 5 | 9 | 10 | i | -6
O=C(CSc1nnc(-c2ccco2)n1-c1ccccc1)NCc1ccc2c(c1)OCO2 | 1 | -2 | 2 | 2 | 8 | -12 | i | -7
O=C(Cc1ccc(-c2ccccc2)cc1)NCc1cccnc1 | / | -9 | -13 | -1 | -3 | 57 | i | -2
O=C(COc1ccc(Cl)cc1Cl)NNC(=S)NC(=O)c1ccco1 | -11 | 2 | 5 | 2 | 17 | 28 | i | 18
COc1ccc(NC(=O)COc2ccc(N(C)S(=O)(=O)c3ccc(Cl)cc3)cc2)cc1 | -7 | -3 | -11 | / | 4 | 26 | / | /
CCc1ccc(C(=O)NNC(=O)c2cccc(N3C(=O)CCC3=O)c2)cc1 | / | -1 | 0 | / | -6 | -13 | i | /
O=C(NC(=S)Nc1cccc(NC(=O)c2ccccc2Cl)c1)c1cccs1 | -9 | 4 | -6 | -12 | 2 | 1 | i | 3
COc1ccc(CCNC(=O)C2CCN(S(=O)(=O)c3ccc4nc5c(c(C(=O)O)c4c3)CCCC5)CC2)cc1OC | 1 | -2 | 2 | 18 | 0 | -4 | i | 3
Later entries.
SMILES | Yeast UUG start | MT1-MMP act inh | MT1-MMP act inh RFP | PABP FP inh | HIV Env fusion | CSC inhib | Rce1 inhib | eIF4H inh | others
CC(C)C(=O)Nc1ccc(C(=O)NNC(=O)C(c2ccccc2)c2ccccc2)cc1 | / | 6 | 5 | 8 | -68 | / | i | -5
COc1ccccc1/C=C/C=N/n1c(COc2ccccc2)n[nH]c1=S | / | 0 | -2 | 8 | -66 | -10 | i | 5
CCc1cc2c(-n3nc(C)cc3C)ncnc2s1 | -9 | -2 | -1 | -2 | -21 | 11 | i | 2
COc1ccc(CCN2CCCn3c2nc2c3c(=O)n(Cc3ccccc3F)c(=O)n2C)cc1OC | / | 3 | -3 | -5 | 10 | -19 | i | -7
O=C(O)CSCc1c(F)cccc1Cl | / | 5 | 5 | 4 | / | 2 | i | -10
Cc1ccc(NC(=O)C2CCCN(c3ncccn3)C2)c(C)c1 (stereo not drawn) | -15 | 1 | 2 | 0 | -3 | -12 | i | -11

A draw from above in order of molecular weight, rising:
SMILES | Yeast UUG start | MT1-MMP act inh | MT1-MMP act inh RFP | PABP FP inh | HIV Env fusion | CSC inhib | Rce1 inhib | eIF4H inh | others
Cn1cc(Cl)c(-c2n[nH]c(=S)n2C2CCCCC2)n1 | / | 0 | 1 | -16 | 2 | -1 | i | 5
O=C(N/N=C/c1ccc([N+](=O)[O-])cc1)c1cccc2cc[nH]c12 | / | -3 | -4 | 8 | -6 | 10 | i | 7
O=C(NN1C(=O)c2ccccc2C1=O)c1ccc2c(c1)C(=O)N(CC1CCCO1)C2=O (stereo not drawn) | -8 | -1 | 3 | 8 | -12 | -18 | i | 6
CCN1CCN(c2cc(C)c3cc(NC(=O)c4ccc(Br)o4)ccc3n2)CC1 | -2 | 5 | -1 | -1 | -33 | -7 | i | -7
